Mtb bLac sens = beta-lactam sensitization of Mtb H37Rv | M. tuberculosis H37Rv growth with meropenem, percent inhibition; hits of this screen are not shown here | 330,000 compounds, 0.27% hits | inhibition, % at 25 µM | AID 434955;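 active = about 74% or more and at least 40 points above the plate without the antibiotic, then above 30% in a dose series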;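 also: growth measured after seven days incubation then overnight dye step; 0% = bacteria only wells and 100% = bacteria with antibiotic; twin plates without the antibiotic show which effects depend on it; some results filed as inactive read as strong as hits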
The depositor's hits bear a star. A portion of the library. The share of hits here may be higher or lower than overall.

The opening 7 entries, ahead of the listing:
Compound | Mtb bLac sens
CS(=O)(=O)c1ccc([C@@H](O)[C@@H](CF)NC(=O)C(Cl)Cl)cc1 | -5.3
Cc1cccc(C(=O)OC(C)C(=O)Nc2ccc(S(=O)(=O)Nc3ncccn3)cc2)c1C (stereo not drawn) | -0.6
Cc1ccc(NC(=O)COC(=O)CN2C(=O)NC3(CCCC3)C2=O)cc1F | 4.7
O=C(NC1CCCC1)c1cccc(S(=O)(=O)N2CCOCC2)c1 | 2.1
Cc1ccc(S(=O)(=O)Nc2cccc(C(=O)NCCN3CCOCC3)c2)cc1F | 0.5
CCOc1ccc2oc(C(=O)OCC(=O)N3CCCC(C)C3)c(C)c2c1 (stereo not drawn) | 36.1
COc1ccc(C(=O)COC(=O)/C=C/c2ccco2)cc1F | 47.9

The whole of this part, from the start:
Compound | Mtb bLac sens
CS(=O)(=O)c1ccc([C@@H](O)[C@@H](CF)NC(=O)C(Cl)Cl)cc1 | -5.3
Cc1cccc(C(=O)OC(C)C(=O)Nc2ccc(S(=O)(=O)Nc3ncccn3)cc2)c1C (stereo not drawn) | -0.6
Cc1ccc(NC(=O)COC(=O)CN2C(=O)NC3(CCCC3)C2=O)cc1F | 4.7
O=C(NC1CCCC1)c1cccc(S(=O)(=O)N2CCOCC2)c1 | 2.1
Cc1ccc(S(=O)(=O)Nc2cccc(C(=O)NCCN3CCOCC3)c2)cc1F | 0.5
CCOc1ccc2oc(C(=O)OCC(=O)N3CCCC(C)C3)c(C)c2c1 (stereo not drawn) | 36.1
COc1ccc(C(=O)COC(=O)/C=C/c2ccco2)cc1F | 47.9
Cc1ccsc1C(=O)OCc1cc(=O)n2ccsc2n1 | -6.1
CC(=O)Nc1ccc(NC(=O)C(NS(=O)(=O)c2ccc3c(c2)OCCO3)C(C)C)cc1 (stereo not drawn) | -1.3
CCn1c(=O)[nH]c2cc(Cl)c(Cl)cc21 | 4.1
CC(OC(=O)c1ccc(-n2cnnn2)cc1)C(=O)Nc1ccc(F)c(F)c1F (stereo not drawn) | 2.5
Cc1cc(C(=O)O)cc(S(=O)(=O)Nc2c(C)nn(C)c2C)c1C | -0.5
COc1ccc([C@H]2CC(=O)C=C(c3ccc(-c4ccccc4)c(F)c3)C2)cc1 | -4.5
Cc1noc(C)c1NC(=O)Nc1cccc2c1O[C@H](CN(C)S(=O)(=O)c1ccccc1)[C@@H](C)CN([C@H](C)CO)C2=O | 4.4
CN(CC(=O)Nc1ccc(F)c(F)c1F)C(=O)CCCc1nc2ccccc2c(=O)[nH]1 | -7.0
Cc1ccccc1NC(=O)Cc1nc(COC(=O)Cc2c(F)cccc2Cl)cs1 | -3.5
O=C1CCCN1C(=O)CSc1nnnn1-c1cccc(F)c1 | -6.7
O=C(COC(=O)c1cc(Br)ccc1O)NC12CC3CC(CC(C3)C1)C2 | -1.6
C/C=C/c1ccc(OCCCCN(C)Cc2ccccc2)c(OC)c1 | 1.7
COc1ccc(CNC(=O)COC(=O)[C@@H]2CCCN2C(=O)c2cccs2)cc1 | -1.6

Two of the compounds above, with each value named.
Cc1noc(C)c1NC(=O)Nc1cccc2c1O[C@H](CN(C)S(=O)(=O)c1ccccc1)[C@@H](C)CN([C@H](C)CO)C2=O
- Mtb bLac sens: 4.4
CN(CC(=O)Nc1ccc(F)c(F)c1F)C(=O)CCCc1nc2ccccc2c(=O)[nH]1
- Mtb bLac sens: -7.0

Following part
Compound | Mtb bLac sens
O=C(CN1CCN(C(=O)C2CCC2)CC1)Nc1ccc(F)cc1 | 2.0
CC(=O)c1cccc(NC(=O)C2=CN3CCS(=O)(=O)N=C3C=C2)c1 | -0.2
O=C(CC1C[C@H](C(=O)N2CCOCC2)[C@@]2(CCC3CCCC3)c3[nH]c4ccccc4c3CCN2C1=O)NCc1ccco1 (stereo partly drawn) | -0.7
CC1CCCC(NC(=O)Cn2cc([N+](=O)[O-])ccc2=O)C1C (stereo not drawn) | 1.7
CN(C(=O)c1ccc(NC(=O)Cc2ccc(NC(=O)C3CCN(C(=O)C4CCCC4)CC3)cc2)cc1)C1CC1 | -4.6
CCCCN1C(=N)N([C@@H](CCC)CN2CCC[C@H]2CN2C(N)=NC[C@@H]2Cc2ccccc2)C[C@H]1[C@H](C)CC | -0.7
Cc1ccsc1CN(C)C(=O)c1cc(S(=O)(=O)N2CCOCC2)ccc1N1CCCC1 | -3.9
CN(C)c1ccc(C(=O)Nc2cccc(S(=O)(=O)N3CCCC3)c2)cc1 | 4.0
COCCN(Cc1ccccc1)C(=O)c1ccc2c(c1)NC(=O)CS2 | -5.3
Cc1sc2nc(CN3CCOCC3)nc(N3CCN(S(=O)(=O)c4ccccc4)CC3)c2c1C | 0.2
Cc1ccc(S(=O)(=O)N2[C@@H](c3ccccc3F)C(C(=O)O)=CC[C@H]2c2ccc(C(C)C)cc2)cc1 | -2.5
CN(C)S(=O)(=O)c1ccc(C(=O)NC(=O)CSc2nncs2)cc1 | -3.3
CN1CCN(C(=O)c2ccc(-c3ccc(Br)cc3)o2)CC1 | 0.8
COc1cc(OC)cc(-c2c(-c3ccc(C(C)=O)cc3)c3cc(-c4cccc5[nH]ccc45)ccc3n2C)c1 | -6.7
CC(=O)N1CCN(CCS(=O)(=O)c2cc(Cl)ccc2Cl)CC1 | 25.6
O=C(COC(=O)c1ccc(Br)o1)NCc1ccc(Cl)cc1 | -3.1
CC(Oc1ccc(Cl)cc1Cl)C(=O)OCC(=O)c1c(N)n(C)c(=O)n(C)c1=O (stereo not drawn) | 1.9
CCCCc1c(O)nc(SCC(=O)N2CCOCC2)n(-c2ccccc2OC)c1=O | 1.1
C=CCn1c(SCC(=O)c2c(N)n(C)c(=O)n(C)c2=O)nnc1-c1ccoc1C | -5.9
CN(CCOc1ccccc1)C(=O)CNC(=O)c1ccc(C(C)(C)C)cc1 | 4.1
Cc1coc2cc3oc(=O)c(CCC(=O)NC4CC4)c(C)c3cc12 | -4.4
CCCn1c(SCC(=O)N(C)CC(=O)Nc2ccc(C)cc2)n[nH]c1=O | -7.3
O=C(COC(=O)c1ccc([N+](=O)[O-])s1)NCCc1ccccc1 | 92.8
O=C(COC(=O)/C=C/c1cccc(Br)c1)NC1CC1 | -1.7
COc1ccccc1NC(=O)Cc1nnc(SCC(=O)NC2CCCC2)n1C | -4.9
O=C(CCNS(=O)(=O)c1ccccc1)NNC(=O)COc1ccccc1F | 1.9
COC(=O)[C@@]12CCCN1[C@H](c1ccc(-c3ccc4c(c3)OCO4)cc1)[C@H]1C(=O)N(C)C(=O)[C@H]12 | -11.5
COC(=O)C1=C(c2cccc(C#N)c2)C[C@@H]2CC[C@H]1N2C(=O)N1CCOCC1 | -7.9
Nc1nnc(SCC(=O)NCC(=O)Nc2ccc(F)c(F)c2F)s1 | -7.8
CC(=O)c1cccc(NC(=O)c2c(-c3c(F)cccc3Cl)noc2C)c1 | 4.6
COc1ccc2sc(-c3ccc(S(C)(=O)=O)cc3)c(-c3ccc(SC)cc3)c2c1 | 11.8
CCN1C[C@]2(COC)CC[C@H](O)[C@]34C1[C@](O)([C@@H](OC)[C@H]23)[C@@]1(O)C[C@H](OC)[C@H]2C[C@@H]4[C@@H]1[C@H]2OC | 0.3
CC(C)Cn1c(SCC(=O)Nc2ccc(Cl)cc2F)nc(O)cc1=O | -1.6
COc1cc(SC)ccc1C(=O)N1CCN(Cc2ccc3c(c2)OCO3)CC1 | -2.2
CN(CC(=O)Nc1ccccc1C(=O)NC1CC1)Cc1ccc(Cl)cc1 | 5.0
O=[N+]([O-])c1ccc(Cl)c(S(=O)(=O)Nc2cccc(S(=O)(=O)NC3=NCCC3)c2)c1 | -3.6
COc1ccc(S(=O)(=O)N2CCOCC2)cc1NC(=O)CSc1nnnn1C1CC1 | -5.3
COc1ccc(OCCC(=O)OCC(=O)Nc2cccc(S(=O)(=O)N3CCCCC3)c2)cc1 | -2.2
COc1ccccc1C(=O)COC(=O)COc1ccc(C#N)cc1 | -1.1
COCCn1c(C)cc(C(=O)COC(=O)CNC(=O)c2ccco2)c1C | -4.8
CC1CN(C(=O)c2cc(S(=O)(=O)N3CCCCC3)ccc2Cl)CC(C)O1 (stereo not drawn) | -1.0
COc1ccc(N(CC2CO2)S(=O)(=O)c2ccc(C)cc2)cc1 (stereo not drawn) | 6.5
O=C(COc1ccc(Cl)cc1)NNC(=O)c1ccncc1 | 98.6
COc1ccc(CN(C)c2ccc(S(=O)(=O)N3CCN(C)CC3)cc2[N+](=O)[O-])cc1OC | -2.0
C[C@H](CO)N1C[C@H](C)[C@@H](CN(C)Cc2ccc(Cl)c(Cl)c2)Oc2c(NS(=O)(=O)c3ccc(F)cc3)cccc2C1=O | 3.9
CC(C)N(Cc1ccccc1)C(=O)CN1c2cccc3cccc(c23)S1(=O)=O | -12.1
Cc1csc(SC(C)C(=O)Nc2ccc(F)cc2Cl)n1 (stereo not drawn) | -11.2
CC1CCN(S(=O)(=O)N2CCN(C(=O)c3ccc4c(c3)OCO4)CC2)CC1 | -3.2
Cn1nc(C(=O)NCc2cccc(F)c2)cc1C(=O)NCc1cccc(F)c1 | -7.6
NS(=O)(=O)c1ccc(NNC(=O)c2ccc(Br)o2)c([N+](=O)[O-])c1 | -4.5
O=C(COC(=O)Cc1ccc(S(=O)(=O)N2CCOCC2)s1)Nc1ccccc1Cl | 3.2
Cc1noc(C)c1NC(=O)Nc1cccc2c1O[C@H](CN(C)S(=O)(=O)c1ccc(F)cc1)[C@@H](C)CN([C@H](C)CO)C2=O | -2.3
COc1ccccc1CN(C)C(=O)CSc1nnc(C2CC2)n1C1CC1 | -0.4
Cc1noc(C)c1C(=O)Nc1nc(-c2ccc(F)c(F)c2)cs1 | 6.2
COc1ccc(-c2sc3cc(OC)c(OC)cc3c2-c2ccc(O)cc2)cc1 | -3.5
COc1ccc([C@@H]2CC=C(C(=O)O)[C@H](c3ccc(Br)cc3)N2S(=O)(=O)c2ccc(C)cc2)cc1OC | -2.5
CCCCn1c(N)c(N(C)C(=O)c2cc3c(s2)CCCCC3)c(=O)[nH]c1=O | -0.9
C[C@]12CCC3C(CC[C@H]4CC(=O)CC[C@]34C)C1CCC2=O (stereo partly drawn) | 2.8
C#CCOCCOCCOCCNc1nc(N2CCN(C(=O)[C@H](CCCCN)n3cc([C@@H](N)[C@H](C)CC)nn3)CC2)nc(N2CCN(C(=O)[C@H](CCC(=O)O)n3cc([C@@H](N)CCSC)nn3)CC2)n1 | -0.3
O=C(NCc1n[nH]c(=S)n1-c1cccc(C(F)(F)F)c1)c1ccco1 | -3.4

The listing continues:
Compound | Mtb bLac sens
O=C(C[C@H]1C/C=C\C[C@H](NC(=O)OCC2c3ccccc3-c3ccccc32)C(=O)OC[C@@H]2CCCN2C1=O)NCCO | -6.3
CN=c1nc(-c2ccccc2)n(-c2ccccc2)s1 | 1.1
COC(=O)C1=C(c2ccc(OC)c(OC)c2)C[C@@H]2CC[C@H]1N2C(=O)N1CCCC1 | 1.9
CCc1cccc(NC(=O)CN(C)C2=NS(=O)(=O)c3ccccc32)c1 | -2.6
Cc1ccc(NC(=O)c2cc(=O)[nH]c3ccc(S(=O)(=O)N4CCOCC4)cc23)cc1 | -4.7
Cc1ccc(CN2CC(=O)N3[C@H]4c5cc(Cl)ccc5OC[C@@H]4[C@H](c4ccccc4)[C@]3(C)C2=O)cc1 | 35.8
COc1ccc(NS(=O)(=O)c2cc(NC(=O)C3=NN(c4ccccc4)C(=O)CC3)ccc2OC)cc1 | -7.3
CCCCn1c(N)c(N(CC(C)C)C(=O)C2CCC2)c(=O)[nH]c1=O | -0.9
CC(OC(=O)c1cc(=O)[nH]c2ccccc12)C(=O)N1C(C)CCCC1C (stereo not drawn) | -6.8
O=C(COC(=O)c1ccc(S(=O)(=O)N2CCCCC2)cc1)Nc1ccccc1 | -1.6
Cc1cc(NS(=O)(=O)c2ccc(NC(=O)c3ccc([N+](=O)[O-])s3)cc2)nc(C)n1 | 90.0
CCN(CC)CCNC(=O)c1ccc(NC(=O)C2CC(=O)N(CCc3ccc(OC)c(OC)c3)C2)cc1 (stereo not drawn) | -1.6
CCC(C)c1ccc(NC(=O)COC(=O)C2CCCC2)cc1 (stereo not drawn) | -2.5
C=CC[C@H](CC(=O)N[C@H](CO)Cc1ccccc1)C(=O)N[C@@H](COC(=O)[C@H](CC=C)CC(=O)OC(C)(C)C)Cc1c[nH]c2ccccc12 | -8.0
Cc1ccc(C)c(C(=O)CN2C(=O)NC3(CCc4ccccc43)C2=O)c1 (stereo not drawn) | 0.7
Cc1sc2ncnc(N3CCC(C(=O)NNC(=O)COc4ccccc4F)CC3)c2c1C | -3.5
CCCCCC(=O)Nc1ccc(S(=O)(=O)NC2=NCCCCC2)cc1 | -5.1
Cc1cc(Br)ccc1NC(=O)CN(C)C(=O)c1ccc(-n2cncn2)c([N+](=O)[O-])c1 | -4.1
O=C(COC(=O)c1ccc(F)cc1F)NCc1ccc2c(c1)OCO2 | 0.1
CCC(C)NC(=O)c1ccc(NC(=O)CC2SC(N3CCCCC3)=NC2=O)cc1 (stereo not drawn) | -6.7
Cc1cc(C)cc(NC(=O)C2C3C=CC4(O3)C2C(=O)N(CCCN2CCCCC2)C4C(=O)NC2CCCCC2)c1 (stereo not drawn) | 4.4
C[C@H](CO)N1C[C@H](C)[C@@H](CN(C)S(=O)(=O)c2ccccc2)Oc2c(NC(=O)Nc3ccc(C(F)(F)F)cc3)cccc2C1=O | 55.7
NC(=O)c1ccsc1NC(=O)COC(=O)c1c(F)cccc1Cl | -9.4
Cc1ccc2c(COC(=O)CNC(=O)c3ccco3)cc(=O)oc2c1C | 0.0
COc1ccc(CNC(=O)COc2ccccc2C(=O)c2cnn(-c3ccccc3)c2)cc1OC | 10.4
CCOc1ccccc1OCCCC(=O)Nc1ccc(Cl)c(S(=O)(=O)N2CCOCC2)c1 | 11.6
O=c1oc(-c2ccc(O)c(O)c2)cc2cccc(O)c12 | -2.5

Assay outcomes from PubChem BioAssay.
